# VDR inh – Inhibitors of the vitamin D receptor (VDR): qHTS; VDR-SRC2-3 peptide fluorescence polarization, 2 h; 400,000 tested, 0.93% active; Potency, µM, for inactives: max response, negative = inhibition, most hits filed as inhibitors; Vitamin D3 receptor (Homo sapiens), P11473; AID 504847, 2011; active means well fitted inhibition curve with a large enough effect; inconclusive means small, poorly fitted or top-dose-only effect, or another doubt; inactive means no such curve, though single readings can be large or run the other way; further: series mostly up to about 120 µM
# Target sequence (P11473 whole entry, looked up): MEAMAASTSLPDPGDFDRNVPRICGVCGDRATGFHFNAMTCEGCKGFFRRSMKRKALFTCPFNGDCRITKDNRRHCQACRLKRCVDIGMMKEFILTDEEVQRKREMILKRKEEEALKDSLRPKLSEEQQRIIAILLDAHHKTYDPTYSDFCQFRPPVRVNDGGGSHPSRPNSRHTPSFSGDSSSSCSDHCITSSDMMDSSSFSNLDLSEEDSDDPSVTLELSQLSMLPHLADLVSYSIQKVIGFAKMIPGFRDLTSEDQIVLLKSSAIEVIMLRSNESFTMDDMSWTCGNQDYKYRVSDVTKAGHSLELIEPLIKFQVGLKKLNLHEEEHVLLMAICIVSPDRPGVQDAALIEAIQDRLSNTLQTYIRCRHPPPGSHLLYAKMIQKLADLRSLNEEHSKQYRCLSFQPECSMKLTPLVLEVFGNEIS
#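 After 23 nl compound addition and a short centrifugation, plates sat for 2 hours at ambient temperature; polarization of fluorescence then indicated loss of VDR binding to peptide SRC2-3.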
# An asterisk follows results filed as active; ? = inconclusive; & = joins results of further samples; [ ] = dose if it differs, or a comment. On the % scale 0 is the no-effect control and ±100 the full control effect; potency means the concentration at half of the fitted maximal effect. Only part of the results is shown. The share of hits here may be higher or lower than overall.
SMILES	VDR inh
Cc1ccc(Cl)cc1N1CCN(S(=O)(=O)c2ccc3[nH]c4c(c3c2)CCCC4)CC1	4%
COc1cc(-c2noc(C)c2C(=O)NCC[C@@H]2CCCN2C)cc(OC)c1OC	2%
CCCCC(=O)NCCc1c(Cc2ccccc2)[nH]c2ccccc12	-22%&1%
c1cncc(-c2cn(C[C@H]3CC[C@@H]([C@@H]4CC[C@H](Cn5cc(-c6cccnc6)nn5)O4)O3)nn2)c1	-18%
Cc1c(N(C(=O)c2cnccn2)C2(C(=O)NC3CCCC3)CCCCC2)c(=O)n(-c2ccccc2)n1C	3%
COc1ccc(NC(=O)C2CCCN(S(=O)(=O)c3ccc4c(c3)CCCN4C(C)=O)C2)cc1Cl (stereo unspecified)	-8%
COc1cccc(-c2csc(N3CCN(C(=O)NC45CC6CC(CC(C6)C4)C5)CC3)n2)c1	4%
CCC(=O)NC(=S)Nc1cccc(C(C)=O)c1	-7%
CCN(c1ncnc2c1cnn2-c1ccc(C)cc1)C1CCCCC1	4%
Nc1ccc(S(=O)(=O)NC2(C(F)(F)F)NC(=O)N(Cc3ccccc3)C2=O)cc1 (stereo unspecified)	-4%
CN(Cc1ccccc1)C(=O)CN1C(=O)NC(C)(c2ccc(Cl)cc2)C1=O (stereo unspecified)	-7%
COC(=O)c1cn(C(=O)c2cc(Cl)ccc2Cl)c2ccccc12	-11%

# The results go on.
SMILES	VDR inh
CCOC(=O)N/N=C(C)/C=C/c1ccco1	2%
CC(Oc1ccc(Cl)cc1Cl)C(=O)Nc1ccncc1 (stereo unspecified)	-15%
COc1ccc(CN(C)C(=O)c2ccc(NS(=O)(=O)c3ccccc3)cc2)c(OC)c1	11%
CCOC(=O)c1cnn(-c2ccccc2)c1NC(=O)c1ccc(C)cc1	-4%
COc1ccccc1N1CCN(C(=O)c2cc3c(=O)n(C)c4ccccc4c3s2)CC1	-10%
CCN(CC)S(=O)(=O)c1ccc(/C=C/C(=O)OCC(=O)Nc2ccc(S(N)(=O)=O)cc2)cc1	1%
COc1ccc(/C=N/NC(=O)c2ccccc2OC)cc1COc1ccccc1[N+](=O)[O-]	-20%
COc1ccc(CCN(CC(=O)NC(C)(C)C)C(=O)Cn2nnc(-c3ccc(C)o3)n2)cc1OC	6%
COc1ccc(C(=O)OCC(=O)N2C(C)CCCC2C)cc1[N+](=O)[O-] (stereo unspecified)	6%
COCc1ccc(CN2CCCC(CO)(Cc3cccc(Cl)c3)C2)o1 (stereo unspecified)	1%
CC(C)c1nc(SCC(=O)Nc2ccc3c(c2)OCCO3)n[nH]1	-14%
O=C(c1ccc2c3c(cccc13)CC2)C1CCCN(Cc2cccnc2)C1 (stereo unspecified)	-6%

# (cont.)
SMILES	VDR inh
CCn1c(=O)c2sccc2n2c(CCCC(=O)N3CCN(c4cc(Cl)ccc4C)CC3)nnc12	7%
COc1ccc(-c2noc(CN(C(=O)c3ccc(C)cc3C)C(C)C)n2)cc1	-7%
COc1cc(/C=C/C(=O)O)cc(S(=O)(=O)Nc2ccc(F)cc2)c1OC	-17%
COc1cccc(-c2nc(CS(=O)(=O)CC(=O)NCC(C)c3ccccc3)c(C)o2)c1 (stereo unspecified)	-24%
Cn1c(SCC(=O)NCC2CCCO2)nnc1-c1ccco1 (stereo unspecified)	-1%
Cc1ccc(S(=O)(=O)c2ccc(Oc3cccc(C)c3)cc2)cc1	-5%
CCn1c(SCc2cccc(OC)c2)nc2ccccc2c1=O	13%
CC(C)CC(=O)Nc1cc2nn(-c3ccccc3)nc2cc1Cl	-11%
Cc1ccc(NC(=O)c2ccc(S(=O)(=O)N3CCOCC3)cc2)cc1	1%
O=C(CC1N=C2c3ccccc3N=C(SCc3ccccc3F)N2C1=O)NCc1ccc2c(c1)OCO2 (stereo unspecified)	13%
O=C(CCN1CCN(C/C=C/c2ccccc2)CC1)Nc1ccccc1F	5%
CC1CCCN(c2nc3c(c(=O)[nH]c(=O)n3C)n2CCCc2ccccc2)C1 (stereo unspecified)	-5%

# 4 entries picked at random from the list so far, as already listed:
SMILES	VDR inh
COc1ccc(-c2noc(CN(C(=O)c3ccc(C)cc3C)C(C)C)n2)cc1	-7%
Cc1ccc(S(=O)(=O)c2ccc(Oc3cccc(C)c3)cc2)cc1	-5%
CCn1c(SCc2cccc(OC)c2)nc2ccccc2c1=O	13%
CCn1c(=O)c2sccc2n2c(CCCC(=O)N3CCN(c4cc(Cl)ccc4C)CC3)nnc12	7%

# Other compounds
SMILES	VDR inh
Cc1ccc(S(=O)(=O)CCN2C=CC(C(F)(F)F)=NCC2)cc1	10%
COc1cccc(/C=N\NC(=O)c2ccc(Cn3cc(Br)c([N+](=O)[O-])n3)o2)c1O	1%
CCOC(=O)c1cc(-c2ccc(C)cc2)nn1Cc1ccccc1	-4%
Cc1ccc2c(c1)CCCN2C(=O)c1ccncc1	-2%
COc1ccc(NC(=O)CCn2c(=O)c3cccn3c3ccccc32)cc1	-19%
Cc1ccccc1C(=O)Nc1ccc2nc(SCCOc3ccccc3)sc2c1	1%
Cc1noc(C)c1C(=O)Nc1ccccc1-c1ccccc1	12%
Oc1cc(OCc2ccccc2)ccc1-c1[nH]ncc1-c1ccccc1	2%
CCOC(=O)C1=C(CSc2nc(CC)c(C)cc2C#N)OC(N)=C(C#N)C1c1ccc(OC)cc1 (stereo unspecified)	52%[activator]
COC(=O)NNC(=O)C(C)Oc1ccc(Cl)cc1Cl (stereo unspecified)	17%
CCN(CC)S(=O)(=O)c1ccc2nc(CSc3nnnn3-c3ccc(O)cc3)[nH]c2c1	14%
Cc1ccc(CNC(=O)C(Cc2ccccc2)n2cccc2)cc1 (stereo unspecified)	8%

# New compounds follow
SMILES	VDR inh
Nc1nc(-c2ccccc2)[nH]c(=O)c1N	-19%
COc1ccc(C(=O)NCCN=C2NS(=O)(=O)c3ccccc32)cc1	-1%
CCOc1ccc(Cl)cc1S(=O)(=O)N1CCN(c2ccc(F)cc2)CC1	2%
Cc1ccc(S(=O)(=O)c2nc(-c3ccccc3)oc2SCC(=O)NCC2CCCO2)cc1 (stereo unspecified)	1%
Cc1nc2ccccc2n1CC(O)c1ccccc1 (stereo unspecified)	2%
COc1ccc(C(CCNCc2ccc(OC(C)C)cc2)c2ccccc2OC)cc1 (stereo unspecified)	-26%
CCN(CC)S(=O)(=O)c1cccc(C(=O)N2CC(O)CC2C(=O)OC)c1 (stereo unspecified)	-11%
O=C(CSc1nnc(-c2cccs2)n1-c1ccccc1)NCc1ccc2c(c1)OCO2	2%
Cc1ccc(-c2cc(C(=O)NCCCN3CCOCC3)c3ccc(Cl)c(C)c3n2)cc1	0%
CC(NC(=O)c1ccc(Cl)cc1Cl)C(c1ccccc1)N1CCOCC1 (stereo unspecified)	-24%
Nc1cc2c(cc1Cl)-c1ccc(Cl)cc1C2=O	10%
O=C(Cn1nnc2ccccc21)OCC(=O)c1ccccc1	12%

# Reformatted with the structure last: part of the list above.
VDR inh	Structure
-14%	CC(C)c1nc(SCC(=O)Nc2ccc3c(c2)OCCO3)n[nH]1
-6%	O=C(c1ccc2c3c(cccc13)CC2)C1CCCN(Cc2cccnc2)C1 (stereo unspecified)
7%	CCn1c(=O)c2sccc2n2c(CCCC(=O)N3CCN(c4cc(Cl)ccc4C)CC3)nnc12
-7%	COc1ccc(-c2noc(CN(C(=O)c3ccc(C)cc3C)C(C)C)n2)cc1
-17%	COc1cc(/C=C/C(=O)O)cc(S(=O)(=O)Nc2ccc(F)cc2)c1OC
-24%	COc1cccc(-c2nc(CS(=O)(=O)CC(=O)NCC(C)c3ccccc3)c(C)o2)c1 (stereo unspecified)
-1%	Cn1c(SCC(=O)NCC2CCCO2)nnc1-c1ccco1 (stereo unspecified)

# (continued)
SMILES	VDR inh
Cc1cc(SCCOc2ccc(Br)cc2)nc(N)n1	-2%
O=C(O)COc1ccccc1C=NNC(=O)c1ccccc1NS(=O)(=O)c1cccs1	-6%
CCOc1cc2sc(N3CCC(C(=O)Nc4ccc(CC)cc4)CC3)nc2cc1Br	-13%
CC1(C)C(C=C(Cl)Cl)C1C(=O)N(Cc1ccccc1Cl)C1CCS(=O)(=O)C1 (stereo unspecified)	23%
Cc1ccsc1/C=N/NC(=O)c1ccc2c(c1)OCCO2	3%
Cn1cc(C(=O)NCc2ccccc2Cl)c(=O)c2cc(S(=O)(=O)N3CCCCCC3)ccc21	-10%
ON(CCc1ccccn1)CCc1ccccn1	-9%
O=C(Cn1c(=O)n(Cc2ccco2)c(=O)c2ccccc21)Nc1ccc(Cl)cc1Cl	10%
O=C(Nc1cnn(Cc2ccccc2)c1)c1cc2nc(-c3ccco3)cc(C(F)(F)F)n2n1	9%
Cc1nc2cc3sc(C)nc3cc2s1	-4%
COc1ccccc1NC(=O)c1cc2c(=O)n(C)c3ccccc3c2n1C	-17%
CN1CCN(Cc2nc3ccccc3c(=O)n2Cc2nc(-c3ccc4ccccc4c3)cs2)CC1	-3%&-9%

# (next part)
Compound	VDR inh
COc1ccc(C2/C(=C(\O)c3ccc4c(c3)OCCO4)C(=O)C(=O)N2c2nc(C)c(C(C)=O)s2)cc1 (stereo unspecified)	-12%
Cc1cccc(NS(=O)(=O)c2cccc(C(=O)N3CCCC(C(F)(F)F)C3)c2)c1 (stereo unspecified)	-15%
COc1ccc(-n2c(=O)c3sc4ccccc4c3n(CC(=O)Nc3cccc(C)c3)c2=O)cc1	-2%
N#CC1=C(N)Oc2n[nH]c(-c3cccs3)c2C1c1ccncc1 (stereo unspecified)	-7%
CC1(C)CNC(=O)CC(C)(C)N1O	4%
O=C(Nc1ccccc1)c1ccc(S(=O)(=O)N2CCOCC2)cc1	3%
Cc1cccn(Cc2c(Cl)cccc2Cl)c1=O	-1%
CCN(CC)c1ccc2cc(C(N)=O)c(=N)oc2c1	-15%
CSCC[C@H](NC(=O)CC(C)(C)C)c1nc2ccccc2[nH]1	23%
Cc1ccc(S(=O)(=O)CCC#N)cc1	-5%
CN(C(=O)CSc1cccc[n+]1[O-])C1CCCCC1	-11%
NC(=O)c1ccccc1N/C=C/C(=O)c1ccc(Cl)cc1	20%

# (more compounds)
Compound	VDR inh
COc1ccc(C)cc1S(=O)(=O)N(C)CC(=O)NCc1ccco1	-10%
COc1cc(C(c2nnnn2C2CCCC2)N2CCN(C(=O)c3ccco3)CC2)cc(OC)c1OC (stereo unspecified)	-20%
O=C(O)c1cccc(N/N=C/c2ccc(OC(F)(F)F)cc2)c1	-1%
Cc1cccc(C(=O)Nc2cc(S(=O)(=O)N3CCOCC3)ccc2N2CCCCC2)c1	6%
COc1ccc(Cn2nnnc2C(c2cc3cccc(C)c3[nH]c2=O)N2CCOCC2)cc1 (stereo unspecified)	-2%
COc1ccc(/C=C(\NC(=O)c2ccco2)C(=O)Nc2ccc(C(C)=O)cc2)cc1	-12%
O=C(Nc1ccc(S(=O)(=O)NC2CCCC2)cc1)c1cnccn1	-6%
CN=c1scc(C)n1/N=C/c1ccc(O)c(O)c1O	-3%
O=S(=O)(Nc1ccc(-c2cnco2)cc1)c1ccccc1	-16%
O=C(/C=C/c1ccc(F)cc1)c1ccccc1Br	32µM*
COc1ccc(C(=O)Nc2cccc(S(=O)(=O)NC3=NCCC3)c2)cc1OC	-2%
CC(=O)NCC1COc2ccccc2O1 (stereo unspecified)	3%

# The list continues.
Compound	VDR inh
COc1ccc(/C(N)=N/OC(=O)Cc2ccccc2)cc1	7%
CCN(CC)c1ccc(/C=N/NC(=O)c2ccc3c(c2)OCCO3)cc1	4%
Fc1ccc2cc(-c3ccsc3)ncc2c1	-3%
O=C(COc1ccccc1)Nc1ccc2c(c1)nc1n2CCOC1	-17%
CCO[C@H]1OC(C(=O)NCc2ccccc2)=C[C@@H](C2CC2)[C@@H]1CCCO	-17%
CC(C)c1ccc(C2c3[nH]c4ccccc4c3C[C@H]3C(=O)N(c4ccccc4C(=O)N4CCC[C@H]4C(=O)O)C(=O)N23)cc1 (stereo partly specified)	4%
CCC(=O)N1CCN(c2ccc(Cl)cc2NC(=O)c2ccc([N+](=O)[O-])o2)CC1	-6%
COc1ccc(-c2cc(CC3(C(=O)O)CCN(C(=O)OC(C)(C)C)CC3)on2)c(OC)c1	-23%
O=C(O)c1ccc(-n2ncc3c2/C(=C\c2cccc([N+](=O)[O-])c2)CC3)cc1	-7%
Cn1cc(/C=N/Nc2ccccc2)c2ccccc21	?
CCN1CCN(CCNC(=O)Cn2c(=O)c3cccn3c3ccc(F)cc32)CC1	-7%
Cc1ccc(CNC(=O)CN(c2ccc(C)cc2)S(=O)(=O)c2c(C)n[nH]c2C)cc1	3%

# (list continues)
Compound	VDR inh
CCOC(=O)c1cnc(SCC(=O)Nc2nc(C)c(C)s2)nc1N	-13%
CCN=C1S/C(=C/c2ccc(-c3ccc(F)cc3)o2)C(=O)N1CC	-19%
COc1ccc(C(=O)NCc2ccc3c(c2)CCN3C(=O)c2ccncc2)cc1	22%
O=C(COC(=O)c1ccccc1NCCO)Nc1cc(C(F)(F)F)ccc1N1CCOCC1	-5%
Cc1cc2nn(-c3ccccc3)nc2cc1NC(=O)COc1ccc(Cl)cc1	-26%
COc1ccc(-c2csc(NC(=O)C3COc4ccccc4O3)n2)cc1OC (stereo unspecified)	8%
O=C(NC(=S)N1CCCCCC1)c1ccccc1Cl	-15%
Cc1ccccc1CN1C(=O)C(O)(CC(=O)c2cccc(Br)c2)c2ccccc21 (stereo unspecified)	6%
O=C(CCc1ccccc1)OCCOC(=O)CCc1ccccc1	4%
CCn1cc(C2C(C(=O)Nc3cc(C)ccn3)=C(C)NC3=C2C(=O)CC(C)(C)C3)c(C)n1 (stereo unspecified)	-6%
Cc1c(-c2c(C#N)c(N)nc3c2CCCCCC3)cnn1C	2%
O=[N+]([O-])c1c(Nc2ccc(O)cc2)cc(Cl)c2nonc12	?
Cc1ccc(NC(=O)Cc2nnc(SCC(=O)NC3CCCC3)n2C)cc1	-5%
COc1ccc(S(=O)(=O)Oc2c(OC)cc(C(=S)N3CCOCC3)cc2OC)cc1	?
COc1ccc(C(=O)OCC(=O)c2ccc3c(c2)NC(=O)CO3)cc1[N+](=O)[O-]	-4%
